Screens from PubChem BioAssay.
Anthrax LT inh: anthrax lethal toxin internalization inhibition; Cells, anthrax lethal toxin internalization, FRET ratio (460/530); Potency, µM (doses to about 40 µM), without a hit: top-dose activity change, negative = inhibition, hits mostly inhibitors; 70,000 compounds, 0.67% hits; active = well fitted falling ratio curve with the 530 nm signal flat; inconclusive = other ratio curves, or a change in one channel alone; inactive = flat curves in the ratio and both channels; the % refers to the ratio; also: % is scaled to controls: 0 for no effect and ±100 for the full control effect; nearly all actives have a fitted effect of over 50% in size; tested in ME-180 cells; beta-lactamase reporter
SmPrx2 inh: Schistosoma mansoni Prx2 inhibition | AID 448 | Potency, µM | 65,000 compounds, 0.07% hits | S. mansoni Prx2 activity coupled to TGR/GSH (TGR is thioredoxin glutathione reductase), NADPH fluorescence loss, qHTS; some inactives read as strong as hits; active means full or partial inhibition curve with a strong effect at the top dose; inconclusive means weaker partial or single-point curve; inactive means no accepted curve; also: series up to 57 µM; many of its hits are not listed in these tables
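Enzyme mix: 100 uM NADPH, 25 nM TGR, 700 uM GSH, 50 nM Prx2 in 100 mM phosphate pH 7.4, 10 mM EDTA, 0.01% Tween-20. 15 min RT with compound; NADPH/GSH added, H2O2 starts reaction; NADPH fluorescence read 8 min.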
* = called active by the depositor; ? = inconclusive; nt = not tested or not shown; & = joins results of further samples; [ ] = another dose, or the depositor's remark. Potency is read from the fitted curve at half-maximal effect.

Sample of the layout (two entries):
Every second line gives: Anthrax LT inh, SmPrx2 inh
- COc1ccccc1C(=O)Nc1ccc2c(c1)nc(CCNC(C)=O)n2C
    16%, >57
- O=S(=O)(c1cccc(S(=O)(=O)N2CCC(n3nnc4ccccc43)CC2)c1)N1CCCCC1
    10%, >57

The whole of this part, repeating the preview:
Every second line gives: Anthrax LT inh, SmPrx2 inh
- COc1ccccc1C(=O)Nc1ccc2c(c1)nc(CCNC(C)=O)n2C
    16%, >57
- O=S(=O)(c1cccc(S(=O)(=O)N2CCC(n3nnc4ccccc43)CC2)c1)N1CCCCC1
    10%, >57
- COc1ccc(OC)c(S(=O)(=O)N2CCN(c3c(C)cccc3C)CC2)c1
    ?, >57
- COCCCNC(=O)c1cc(C)nc2ccc(F)cc12
    1%, >57
- CN1C(=O)CC(N2CCN(CCN=CC3=C(O)CC(C)(C)CC3=O)CC2)C1=O (stereo not given)
    1%, >57
- CCOCC(=O)Nc1cccc(Br)c1
    nt, >57
- COC(=O)NC(c1ccccc1)[C@]1(C(C)=O)CCCC1=O (stereo not given in full)
    -3%[8 µM], nt
- CC(=O)OC1c2ccccc2C(=O)N1Cc1ccccc1Cl (stereo not given)
    -5%, >57
- CCOc1ccccc1C(=O)N(CCC(=O)OC)c1ccccn1
    -7%, >57
- C=CCNC(=O)C1CCCN(S(C)(=O)=O)C1 (stereo not given)
    3%, >57
- COC(=O)c1cc(Br)c(=O)n(-c2ccccn2)c1
    ?, >57
- O=c1cccc2n1CC1CNC[C@H]2C1
    ?, >57&>57&>57
- c1cn(-c2ncnc3ccc(-c4ccoc4)cc23)cn1
    ?, >57
- CCOC(=O)C1CCCN(S(=O)(=O)c2cccc3cccnc23)C1 (stereo not given)
    8%, >57
- COc1cc(C(=O)N(Cc2ccccn2)CC2CCCO2)cc(OC)c1OC (stereo not given)
    17%, >57
- CCOc1ccccc1C(=O)NCC(=O)OCC(=O)c1ccc2c(c1)OCCO2
    14%, >57
- COc1ccc(CC(NC(C)=O)C(=O)NC2CCN(C(=O)NCc3ccccc3)CC2)cc1OC (stereo not given)
    1%, >57
- CCCCn1c(N)c(N(CCC(C)C)C(=O)CSc2nnc(C)s2)c(=O)[nH]c1=O
    3%, >57
- O=C(c1nnc(-c2ccncc2)o1)c1ccccc1Cl
    6%, >57
- CC(=O)N1CCc2cc(S(=O)(=O)NCCCOC(C)C)ccc21
    0%, >57
- CCCCS(=O)(=O)Nc1ccc(Cc2ccncc2)cc1
    8%, >57
- CN(C)c1oc(-c2ccccc2Cl)nc1C#N
    1%, nt
- COc1ccccc1NC(=O)CCn1c(=O)sc2ccccc21
    10%, >57
- COc1ccc(NS(=O)(=O)c2ccc(NS(C)(=O)=O)cc2)cc1
    -12%, >57
- O=C(Nc1cccc2ncccc12)c1cc2ccccc2o1
    -6%, >57
- Nc1nnc(SCC(=O)N2CCN(c3ccccc3)CC2)s1
    8%, >57
- O=C(c1cccs1)N(CCO)Cc1cc2cc3c(cc2[nH]c1=O)OCCO3
    ?, >57
- Cc1ccc2cc3c(NC(=O)c4cccnc4)nn(C)c3nc2c1
    11%, >57
- C=C(C)c1ccc(C(C)(C)NC(=O)N2CCN(C)CC2)cc1
    nt, >57
- O=C(NCc1ccccn1)c1cn(Cc2ccccc2)nn1
    4%, >57
- CCCc1cc(=O)[nH]c(SCC(=O)c2ccc(S(=O)(=O)N3CCCC3)cc2)n1
    5%, >57
- COc1ccc(S(=O)(=O)Cc2ccc(C(=O)NCc3ccc(F)cc3)o2)cc1
    ?, >57
- COc1ccc(NC(=O)C(c2ccc(OC)cc2)N(C)C(=O)c2cnccn2)cc1 (stereo not given)
    4%, ?
- CC(C)(C)C1CCc2nc(NC(=O)Cc3cn4ccsc4n3)sc2C1 (stereo not given)
    ?, nt
- O=C(Nc1c(C(=O)N2CCCC2)cnn1-c1ccccc1)c1cccc(F)c1
    13%, nt
- CN(C)S(=O)(=O)c1ccc2c(c1)c(=O)c(C(=O)N1CCN(c3ccccn3)CC1)cn2C
    10%, >57
- Cc1nc(NC(=O)CCC(=O)O)sc1C(=O)N(C)C
    2%, >57
- COc1ccc(C[C@H](N)C(=O)N[C@@H]2[C@H](O)[C@H](n3cnc4c(N(C)C)ncnc43)O[C@@H]2CO)cc1
    ?, >57
- Cc1cc(C)c2[nH]c(=O)c(C(c3nnnn3Cc3ccc4c(c3)OCO4)N3CCC(C)CC3)cc2c1 (stereo not given)
    -4%, >57
- N#Cc1nc(-c2ccc(Cl)cc2)oc1NCCc1ccccn1
    4%, >57

Record cards, from the list above:
Record of `CCOc1ccccc1C(=O)N(CCC(=O)OC)c1ccccn1` = Anthrax LT inh: -7%; SmPrx2 inh: >57
Record of `COc1ccc(C[C@H](N)C(=O)N[C@@H]2[C@H](O)[C@H](n3cnc4c(N(C)C)ncnc43)O[C@@H]2CO)cc1` = Anthrax LT inh: ?; SmPrx2 inh: >57

(more compounds)
Every second line gives: Anthrax LT inh, SmPrx2 inh
- COc1ccc(Cl)cc1-n1c(=S)sc2c(=O)[nH]c(SCC(=O)NCC3CCCO3)nc21 (stereo not given)
    -26%, >57
- CCOC(=O)c1sc(N)nc1-c1ccccc1
    -1%, >57
- Cc1[nH]c2ccccc2c1NC(=O)CN1CCN(Cc2ccc3c(c2)OCO3)CC1
    -27%, >57
- O=C(CC1CCCCC1)OCn1nnc2ccccc2c1=O
    ?, >57
- Cc1ccccc1N1C(=O)C(Cl)=C(N2CCN(c3ccccc3)CC2)C1=O
    ?, nt
- CCCCCCNC(=O)Nc1ccc(S(=O)(=O)Nc2ccc(CCNC[C@H](O)COc3ccc(O)cc3)cc2)cc1
    ?, nt
- Clc1cccc(SC2CCNCC2)n1
    -14%, >57
- CCc1ccc(OC)c(S(=O)(=O)NCCOc2ccccc2)c1
    0%, >57
- Cn1c(=O)c2c(n(C)c1=O)=NC1(CCCCC1)N=2
    -20%, >57
- CC1(C)O[C@@H]2C[C@H]3[C@H]4C[C@H](F)C5=CC(=O)CC[C@]5(C)[C@@H]4[C@H](O)C[C@]3(C)[C@]2(C(=O)CO)O1
    -2%[3.58 µM], >57
- C[C@@]12C[C@@H](O)[C@H]3[C@@H](CCC4=CC(=O)CC[C@]43C)[C@H]1CC[C@H]2C(=O)CO
    -1%[3.58 µM], >57&>57
- CCOc1ccccc1Oc1coc2cc(O)ccc2c1=O
    13%, >57
- O=C(CCc1ccccc1)Nc1ccc(NC(=O)C2CC2)nc1
    -7%, >57
- O=C(c1csnn1)N1CCC[C@@]2(CCN(c3ccccc3)C2)C1
    20%, >57
- O=C(c1cnc2sccn2c1=O)N1CCCc2ccccc21
    -3%, >57
- COc1ccc2nc(NC(=O)C3CCCN(S(=O)(=O)c4cccs4)C3)sc2c1 (stereo not given)
    ?, >57
- Cc1ccc(N=Cc2nc(-c3ccco3)oc2O)cc1
    10%, >57
- Cn1nc(-c2ccc(Cl)cc2)c2cc(C(=O)N3CCCC3)sc21
    ?, >57
- COC(=O)c1cc(=O)c2ccc(OC)cc2o1
    2%, nt
- CC1Cc2ccccc2N1C(=O)Cn1nnc(-c2ccccc2NC(=O)C2CCC2)n1 (stereo not given)
    -10%, >57
- COc1ccc(Cc2nnc(SC)[nH]c2=O)cc1OC
    ?, >57
- CCCCn1nnnc1NCc1ccc(OC)c(OC)c1OC
    -14%, >57
- COc1ccc(C(=O)N2CCN=C2SCc2cccnc2)cc1OC
    3%, >57
- O=C1[C@@H]2[C@@H]3C=C[C@H]([C@@H]2C(=O)N1CN1CCSCC1)[C@@H]1[C@@H]2C(=O)N(CN4CCSCC4)C(=O)[C@@H]2[C@H]31
    -5%[8 µM], >11
- CCOC(=O)Nc1ccc2c(C)cc(=O)oc2c1
    nt, >57
- CNS(=O)(=O)c1cccc(C(=O)NCC(c2cccs2)N(C)C)c1 (stereo not given)
    8%, >57
- C=CCn1c(CNC(=O)CCC)nc2ccccc21
    -4%, >57
- Cc1ccc(N=C2NC(=O)CS2)c(C)c1
    3%, >57
- O=C(C1COc2ccccc2O1)N1CCn2c(nc3ccccc32)C1 (stereo not given)
    -13%, >57
- COc1ccc(-c2nnc(-c3ccc(N)cc3)o2)cc1
    14%, >57
- O=C(CSc1nnc(-c2cccnc2)n1Cc1ccco1)c1ccc2ccccc2c1
    1%, >57
- COc1ccc2cc(C(=O)N3CCOCC3)sc(=O)c2c1OC
    9%, >57
- CN1C[C@H](C(=O)N[C@@]2(C)O[C@@]3(O)[C@H]4CCCN4C(=O)[C@@H](Cc4ccccc4)N3C2=O)C=C2c3cccc4[nH]cc(c34)C[C@@H]21
    -3%[8 µM], >11
- Cc1cccc(NC(=O)c2ccc(NS(=O)(=O)c3c(C)noc3C)cc2)c1
    4%, >57
- CC1NC(=O)N(C)C2NC(=O)N(C)C(c3ccccc3)C12 (stereo not given)
    -6%, >57
- CS(=N)(=O)CC[C@@H](N)C(=O)O (stereo not given in full)
    ?, >57&>57
- COC(=O)c1[nH]c2cc(OC)ccc2c1NC(=O)CCN1CCN(Cc2ccc3c(c2)OCO3)CC1
    nt, >57
- O=[N+]([O-])c1cc(-c2ccc([As](=O)(O)O)cc2)ccc1[As](=O)(O)O
    -5%[8 µM], nt
- CC(C(=O)Nc1sccc1C(N)=O)N1C(=O)C2CC=CCC2C1=O (stereo not given)
    -7%, >57
- Nc1nnc(COc2cccc(C(F)(F)F)c2)s1
    -5%, >57
- CC(=O)c1ccc(N2C(=O)NC3(CCCCC3)C2=O)cc1
    -3%, >57
- CCOC(=O)CNC(=O)CSc1ncnc2c1cnn2-c1ccc(Cl)cc1
    ?, >57
- Cc1nnc(NC(=O)c2ccc(C)c(S(=O)(=O)N3CCCCCC3)c2)s1
    7%, >57
- COc1ccc(OC)c(S(=O)(=O)Nc2ccc3oc4c(c3c2)C(=O)CCC4)c1
    13%, >57
- COC(=O)CCC(=O)c1oc2ccc(Cl)cc2c1NC(=O)CCCN1C(=O)c2ccccc2C1=O
    -9%, >57
- CCOc1ccc(C(C#N)N2CCOCC2)cc1OC (stereo not given)
    1%, >57
- COc1cc2cc(CN(CCCO)S(=O)(=O)c3ccccc3Cl)c(=O)[nH]c2cc1OC
    ?, >57
- O=C(COC(=O)c1cccnc1)c1ccc(Cl)cc1
    ?, >57
- CCC(C)NC(=O)C1CCN(S(=O)(=O)c2cccc3cccnc23)CC1 (stereo not given)
    -9%, >57
- COc1ccccc1N1CCN(CCN2C(=O)c3ccccc3C(C)(C)C2=O)CC1
    ?, >57
- COc1cccc(-n2c(=O)[nH]cc(C(=O)Nc3ccc4c(c3)OCCO4)c2=O)c1
    ?, >57
- NS(=O)(=O)c1ccc(NS(=O)(=O)c2cccs2)cc1
    -2%, >57
- O=C(c1ccc(Cn2cc(Br)cn2)cc1)N1CCN(c2ccccc2)CC1
    -17%, >57
- N#CCCCSc1nnc(-c2ccccn2)o1
    -3%, >57
- O=C(NC1CCCCC1)C1CCCN1S(=O)(=O)c1cccc2nsnc12 (stereo not given)
    -1%, >57
- CCCCOc1ccc(-c2ncc(Cl)cn2)cc1
    -13%, >57
- COc1ccc(OC)c(S(=O)(=O)NCc2csc(-c3ccccc3)n2)c1
    -6%, >57
- CCCS(=O)(=O)N1CCCC(C(=O)NCCCN2CCN(c3cccc(Cl)c3)CC2)C1 (stereo not given)
    -8%, >57
- O=C(O)c1ccc(NS(=O)(=O)c2cccc3nsnc23)cc1
    -10%, >57
- COc1ccc(C(=O)NCC(=O)OC2CCCCC2=O)cc1 (stereo not given)
    -18%, >57

Random excerpt: 4 records from the list.
Every second line gives: Anthrax LT inh, SmPrx2 inh
- NS(=O)(=O)c1ccc(NS(=O)(=O)c2cccs2)cc1
    -2%, >57
- O=C(COC(=O)c1cccnc1)c1ccc(Cl)cc1
    ?, >57
- O=C(c1ccc(Cn2cc(Br)cn2)cc1)N1CCN(c2ccccc2)CC1
    -17%, >57
- COc1cccc(-n2c(=O)[nH]cc(C(=O)Nc3ccc4c(c3)OCCO4)c2=O)c1
    ?, >57

Remaining list, next part:
Every second line gives: Anthrax LT inh, SmPrx2 inh
- Clc1ccc(OCc2nn3c(-c4ccccc4)nnc3s2)c(Cl)c1
    ?, >57
- CCNc1ncc2nc(-c3ccc(Cl)cc3)c(=O)n(Cc3cccs3)c2n1
    ?, >57
- CN(Cc1ccco1)c1ccnc(-c2cccc(NS(C)(=O)=O)c2)n1
    -2%, >57
- c1coc(-c2nc3ccccc3nc2-c2ccco2)c1
    ?, >57
- O=C(Cn1cnc2c(nnn2Cc2ccccc2)c1=O)NCC1CCCO1 (stereo not given)
    1%, >57
- Cc1noc(C)c1C(=O)N1CCC2(CCCN(c3ccccc3)C2)CC1
    ?, >57
- CCOC(=O)N1CCN(S(=O)(=O)c2ccc3[nH]cc(C(=O)O)c(=O)c3c2)CC1
    8%, >57
- CC1CCC2(CC1)NC(=O)N(CC(=O)NC(=O)NC1CCCC1)C2=O (stereo not given)
    5%, >57

These rows are one share of the data, so the mix of outcomes need not match the whole.
